Screening results from PubChem BioAssay.
GIRK2 activ – activators of human GIRK2 potassium channels; actives 0.05% (n = 63,000); calls only for hits at 25 µM; AID 1259325, 2017; HEK293-GIRK2 thallium flux, Thallos fluorescence; G protein-activated inward rectifier potassium channel 2 (Homo sapiens), P48051;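 active means among the strongest 0.2% of first-round signals and kept after retests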;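 further: first round at about 10 µM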
Target sequence (P48051 whole entry, looked up): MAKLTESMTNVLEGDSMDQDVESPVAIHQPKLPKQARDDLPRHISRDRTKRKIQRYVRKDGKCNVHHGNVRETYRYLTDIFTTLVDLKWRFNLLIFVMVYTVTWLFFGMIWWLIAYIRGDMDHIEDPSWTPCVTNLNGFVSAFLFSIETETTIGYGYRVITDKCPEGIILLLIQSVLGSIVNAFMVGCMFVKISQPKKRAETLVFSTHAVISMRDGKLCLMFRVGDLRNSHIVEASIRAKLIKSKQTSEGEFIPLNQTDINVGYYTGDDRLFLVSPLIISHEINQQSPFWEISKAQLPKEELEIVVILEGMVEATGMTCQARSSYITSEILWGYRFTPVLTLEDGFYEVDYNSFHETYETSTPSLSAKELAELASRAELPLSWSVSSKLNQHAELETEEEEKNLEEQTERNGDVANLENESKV
Calls only; i = inactive. An excerpt; count on the stated rates, not on these rows.

Molecule | GIRK2 activ
O=C(CSc1nc2ccccc2s1)NCc1cnn2ccccc12 | i
Cc1ccc(C)c2sc(N(C)CC(=O)NCc3ccc4c(c3)OCO4)nc12 | i
COC(=O)Nc1nc2c(s1)CN(C(=O)c1cc(C)cs1)CC2 | i
Cc1ccc(CNC(=O)c2ccc3c(=O)nc4c(-c5ccccc5F)n[nH]n4c3c2)cc1 | i
CSc1ccccc1NC(=O)CCc1csc(NC(=O)NC2CCCCC2)n1 | i
CCOC(=O)N1CCN(C2CC(=O)N(c3ccc(OC)cc3OC)C2=O)CC1 (centres undefined) | i
O=C(N1CCC(Cn2ccnc2)CC1)C1(c2cccs2)CCCC1 | i
COc1cccc(-n2c(SCC(=O)Nc3ncn[nH]3)nc3ccccc3c2=O)c1 | i
O=c1c2cc3c(cc2nc(SCc2nc(-c4ccc(Cl)cc4)no2)n1CC1CCCO1)OCO3 (centres undefined) | i
O=C(C(=O)N1CCC(CSCc2ccco2)CC1)c1c[nH]c2ccccc12 | i
COC(=O)c1ccccc1NC(=O)Cn1c(-c2ccc(C)cc2)nc2c(c1=O)CN(C)CC2 | i
CCOc1cccc2sc(N(CCn3nc(C)cc3C)C(=O)c3nc4ccccc4s3)nc12 | i
COc1cc(Nc2c(C(=O)N3CCSCC3)cnc3nc(C)ccc23)cc(OC)c1 | i
Cc1ccc(Cl)cc1S(=O)(=O)NCC1CCN(c2cnccn2)CC1 | i
O=C(C1=NN(Cc2cccc(F)c2)c2ccccc2S1(=O)=O)N1CCCC1 | i
O=C(NCCCN1CCN(c2ccccc2)CC1)C(=O)Nc1cc(F)ccc1F | i
COc1ccc(C2CCN(S(=O)(=O)c3ccc(C)s3)C2)cc1 (centres undefined) | i
CN1CCC(CNC(=O)c2cccc(C(F)(F)F)c2)CC1 | i
COc1ccc(CNC(=O)c2cn(-c3cc(N4CCCCC4)ncn3)cn2)cc1 | i
CSc1nc2cc(Oc3cccc(Cl)c3Cl)c(Cl)cc2[nH]1 | i
CC(Cc1ccco1)NC(=O)C1CCN(S(C)(=O)=O)CC1 (centres undefined) | i
Cc1nccn1CC1CCN(C(=O)C2CC(=O)N(c3ccccc3)C2)CC1 (centres undefined) | i
O=C(NCCC(O)c1ccc2c(c1)OCO2)c1ccccc1C(F)(F)F (centres undefined) | i
Cc1cccc(CC(=O)Nc2ccc(SCC(=O)N3CCCC3)nn2)c1 | i
Cc1cn2c3c(=O)n(CCN4CCCCC4)c(=O)n(C)c3nc2n1-c1ccc(Oc2ccccc2)cc1 | i
COc1ccc(OC)c(C(=O)/C=C/c2ccc(Cl)cc2)c1 | i
COCCNC(=O)c1nnn(-c2ccc(NC(=O)c3ccc(F)cc3Cl)cc2)n1 | i
Cn1c(=O)[nH]c(=O)c2c1nc1n2CCCN1c1ccc(O)cc1 | i
COc1ccc(C(=O)Nc2ccc(-n3c(C)nc4ccccc4c3=O)cc2)cc1OC | i
CCc1nnc(C2CCN(C(=O)NC3CCCCC3)CC2)s1 | i
Cc1nc(C)c(-c2ccc(=O)n(CCNC(=O)C3CCN(S(C)(=O)=O)CC3)n2)s1 | i
O=C(c1cc(-c2cccs2)[nH]n1)N1CCN(Cc2nc3ccccc3[nH]2)CC1 | i
Cn1cccc(C(=O)Nc2ccc3c(c2)CCC(=O)N3)c1=O | i
COc1ccc(NC(=O)CSc2ncnc3c2[nH]c2ccc(OC)cc23)c(OC)c1 | i
Cc1nc(-c2ccc(N3CCN(C(=O)CCn4cnc5ccccc5c4=O)CC3)nc2)no1 | i
OCc1cnc(SCc2ccc(Cl)c(Cl)c2)n1Cc1ccc(F)cc1 | i
COc1cccc(CNC(=O)c2ccc3c(=O)nc4c(-c5ccc(Cl)cc5)n[nH]n4c3c2)c1 | i
Cc1ccc(-c2noc(-c3cccn(CC(=O)Nc4cc(Cl)ccc4C)c3=O)n2)cc1 | i
COc1ccc(Cl)cc1C(=O)Nc1cc(OCc2ccc3c(c2)OCO3)ncn1 | i
O=C(Nc1nccs1)c1ccc(-n2ccnc2)nn1 | i
O=C(Cn1c(-c2cccnc2)nc2ccccc21)N1CCCCCC1 | i
Cc1cc(C)c2c(n1)sc1c(N3CCC(C(=O)NCc4ccc(F)cc4)CC3)ncnc12 | i
CN(C)S(=O)(=O)N1CCC(c2nn(C)c(=O)n2-c2ccccc2)CC1 | i
CCCCOc1ccc(S(=O)(=O)NCCNc2cc(-n3cccc3)ncn2)cc1 | i
O=C(Cn1cccn1)Nc1nc2c(s1)COCC2 | i
Cc1nc(NC(=O)Cn2cncc(C)c2=O)sc1C | i
CCc1ccccc1NC(=O)Cn1c(N2CCCC2)nc(C)cc1=O | i
O=C(Cc1cccs1)N1CCN(S(=O)(=O)C2CC2)CC1 | i
COc1nn(C)cc1C(=O)N1CCN(CC(O)c2cccs2)CC1 (centres undefined) | i
CCOC(=O)C1CCc2sc(NC(=O)CNC(=O)c3ccc(=O)[nH]c3)nc21 (centres undefined) | i

(next part)
Molecule | GIRK2 activ
CC(C)(Oc1ccc(Cl)cc1)C(=O)Nc1nnc(C2CC(=O)N(c3ccccc3)C2)o1 (centres undefined) | i
Cn1c(=O)[nH]c(=O)c2c1nc1n2CCN1c1cccc(O)c1 | i
COc1ccc2[nH]c3c4[nH]c5ccc(OC)cc5c4c4c(c3c2c1)C(=O)NC4=O | i
CC(C)c1ccc(OCC(=O)NNC(=O)c2cccn(Cc3ccc(F)cc3)c2=O)cc1 | i
O=C(Cc1noc2ccccc12)N1CCn2c1nc1ccccc12 | i
NC(=O)c1ccccc1OCC#CCNC(=O)c1ccc(-n2cccc2)cc1 | i
O=C(c1cc(Cl)ccc1Cl)N1CCC(N2CCCC2=O)CC1 | i
CCOc1cc(/C=C(\C#N)c2nc(-c3cccs3)cs2)ccc1OC(C)C | i
CC(=O)Nc1ccc(S(=O)(=O)N2CCN(C(=O)N3CCC(C)CC3)CC2)cc1 | i
CN(C)c1ccc(NC(=O)Nc2cn(C)c3ccccc23)cc1 | i
Cc1nccn1-c1ccc(=O)n(CCNC(=O)COc2cccc(C(F)(F)F)c2)n1 | i
Cc1cc(C(=O)NCc2cc(-c3cccs3)n(C3CCCC3)n2)c(C)o1 | i
Cc1oc(-c2ccc(OC(C)C)cc2)nc1Cn1nnc(C(=O)Nc2ccc3c(c2)OCCO3)c1N | i
CS(=O)(=O)Nc1cccc(NC(=O)c2ccc(OCC(=O)C3CC3)cc2)c1 | i
O=c1cc(-c2ccccn2)nc(SCc2nc(-c3ccccc3)no2)[nH]1 | i
CN(C)CC1COCCN1C(=O)c1ccccc1C(F)(F)F (centres undefined) | i
CCCCCn1c(SCC(=O)c2ccccc2)nc2cc(C(=O)N3CCCC3)ccc2c1=O | i
CCN(CC)CCN1C(=O)c2oc3cc(OC)ccc3c(=O)c2C1c1ccc(Cl)cc1 (centres undefined) | i
O=C(Nc1nc(-c2ccco2)cs1)c1csc(-n2cccc2)n1 | i
CCOC(=O)COc1ccc2c(=O)c(Oc3ccccc3OC)c(C)oc2c1 | i
Cc1nc(-c2ccco2)sc1CNC(=O)NCc1cccs1 | i
O=S(=O)(NCC(O)c1ccoc1)c1ccc(F)c(Cl)c1 (centres undefined) | i
COc1ccc(-c2coc3c(C)c(OCCN4CCCCC4)ccc3c2=O)cc1 | i
NS(=O)(=O)c1ccc(CCNC(=O)c2ccc(Cn3c(=O)[nH]c4ccccc4c3=O)cc2)cc1 | i
Cc1ccc(CNC(=O)Cn2nc3c(N4CCN(c5ccccc5C)CC4)nccn3c2=O)cc1 | i
COC(=O)c1ccc(NC(=O)CN2CCC(c3nn(C)c(=O)n3-c3ccccc3)CC2)cc1 | i
O=C(CCC(=O)N1CCN(Cc2csc(-c3ccccc3)n2)CC1)c1ccccc1 | i
CCOC(=O)c1cccc(NS(=O)(=O)c2ccsc2C(=O)OC)c1 | i
Cc1cccc(OCc2nnc3sc(-c4cccnc4)nn23)c1 | i
COc1ccc(-c2c(NC(=O)C(C)C)oc3c(C)cccc3c2=O)cc1OC | i
CCOC(=O)c1ccc(NC(=O)c2cccc(-n3cnnn3)c2)cc1 | i
Cc1ccc(CNC(=O)CCCCCn2c(=S)[nH]c3cc4c(cc3c2=O)OCO4)cc1 | i
Cc1cccc(Cn2cccc(S(=O)(=O)N3CCC(C)CC3)c2=O)c1 | i
COC(=O)Cn1c(=O)c2c(nc3n(C4CCCCC4)c(C)c(C)n23)n(C)c1=O | i
COc1ccc(-c2cc(C(=O)N3CCN(c4cccc(Cl)c4)CC3)no2)cc1 | i
Cc1cc(C)n(-c2nc(CCNC(=O)c3ccc(Cl)s3)cs2)n1 | i
COc1ccc(N2CCN(CCn3c(C)cn4c5c(=O)[nH]c(=O)n(C)c5nc34)CC2)cc1 | i
COc1ccccc1C1NC(=O)NC(C)=C1C(=O)OC1CCCCC1 (centres undefined) | i
O=C(c1c(F)cccc1Cl)N1CCC(CSc2ccccn2)CC1 | i
COCCn1c(C(=O)N2CCN(c3ccc(F)cc3)CC2)cc2c(=O)n(C)c(=O)n(C)c21 | i
N#Cc1nc(/C=C/c2ccccc2Cl)oc1N1CCN(C(=O)c2cccs2)CC1 | i
COc1ccc(N(Cc2nc(-c3ccccc3)oc2C)S(=O)(=O)c2cccs2)cc1 | i
CCOC(=O)N1CCN(S(=O)(=O)CCNC(=O)c2ccc3c(c2)OCO3)CC1 | i
O=C1NCCc2ccc(NS(=O)(=O)C3CC3)cc21 | i
COc1ccc(-c2cc3c(=O)n(CC(=O)Nc4cccc(SC)c4)ccn3n2)cc1OC | i
Cc1nn(-c2ccccc2)c(C)c1N1CCN(C(=O)c2cc3ccccc3oc2=O)CC1 | i
Cc1ccc(S(=O)(=O)N2CCC(C(=O)Nc3nc(-c4ccc(C)c(C)c4)cs3)CC2)cc1 | i
NS(=O)(=O)c1ccc(CNC(=O)c2cnn3c2OCCC3)cc1 | i
Cn1cc(C(=O)N2CCCCCC2)cc(NC(=O)c2cc3ccccc3o2)c1=O | i
O=S(=O)(c1ccc(Br)cc1)N1CC(c2nc(C3CC3)no2)C1 | i

Four records drawn at random from those above:
Molecule | GIRK2 activ
N#Cc1nc(/C=C/c2ccccc2Cl)oc1N1CCN(C(=O)c2cccs2)CC1 | i
NS(=O)(=O)c1ccc(CNC(=O)c2cnn3c2OCCC3)cc1 | i
Cc1cc(C)n(-c2nc(CCNC(=O)c3ccc(Cl)s3)cs2)n1 | i
COCCn1c(C(=O)N2CCN(c3ccc(F)cc3)CC2)cc2c(=O)n(C)c(=O)n(C)c21 | i

A run of entries from further up, as a working copy:
Molecule | GIRK2 activ
Cc1nn(-c2ccccc2)c(C)c1N1CCN(C(=O)c2cc3ccccc3oc2=O)CC1 | i
Cc1ccc(S(=O)(=O)N2CCC(C(=O)Nc3nc(-c4ccc(C)c(C)c4)cs3)CC2)cc1 | i
NS(=O)(=O)c1ccc(CNC(=O)c2cnn3c2OCCC3)cc1 | i
Cn1cc(C(=O)N2CCCCCC2)cc(NC(=O)c2cc3ccccc3o2)c1=O | i
O=S(=O)(c1ccc(Br)cc1)N1CC(c2nc(C3CC3)no2)C1 | i

Further entries:
compound,GIRK2 activ
CS(=O)(=O)NCC1CCC(C(=O)Nc2ccccc2)CC1 (centres undefined),i
CCCSc1cnc(NC(=O)c2nnn(-c3ccccc3OC)c2C)s1,i
O=C1CC(Nc2ccc(N3CCOCC3)cc2)C(=O)N1c1ccc2c(c1)OCO2 (centres undefined),i
Cc1cc(OC(=O)c2ccc3c(c2)OCO3)cc2c1C(=O)/C(=C/c1ccncc1)O2,i
CC1=C(C(=S)Nc2ccccc2)C(c2ccccc2)NC(=S)N1C (centres undefined),i
C=CCn1c(SCc2csc(C)n2)nc2scc(-c3ccc(OC)cc3)c2c1=O,i
O=C(O)CCC/C=C\C[C@H]1C(=O)C[C@@H](O)[C@@H]1/C=C/[C@@H](O)Cc1ccccc1,i
O=C(NCC1(O)CCOc2ccccc21)C1COc2ccccc2O1 (centres undefined),i
Cn1c(=O)c2c(nc3n2CCCN3c2ccc(Oc3ccccc3)cc2)n(C)c1=O,i
CC(=O)OCC(=O)NCCCOc1cccc(CN2CCCCC2)c1,i
COc1ccc(S(=O)(=O)N2CCCOC2CNC(=O)C(=O)NCCN2CCOCC2)cc1 (centres undefined),i
CCOc1ccc(-c2noc(-c3nnn(-c4ccc(C)cc4)c3N)n2)cc1,i
Cc1cc(C(=O)Nc2nc(C(=O)NC(C)c3ccccc3)co2)no1 (centres undefined),i
CS(=O)(=O)N1CCC(CNS(=O)(=O)Cc2cc(F)ccc2F)CC1,i
O=S1(=O)CCC(CNS(=O)(=O)c2ccc(F)c(Cl)c2)C1 (centres undefined),i

Part of the list above, with the structure last:
GIRK2 activ	SMILES
i	CCOc1ccc(-c2noc(-c3nnn(-c4ccc(C)cc4)c3N)n2)cc1
i	O=C(NCC1(O)CCOc2ccccc21)C1COc2ccccc2O1 (centres undefined)
i	CC1=C(C(=S)Nc2ccccc2)C(c2ccccc2)NC(=S)N1C (centres undefined)

Continued:
compound,GIRK2 activ
COC(=O)COc1ccc2c(c1)O/C(=C\c1cccc(Br)c1)C2=O,i
O=S(=O)(NC1CCCC1)c1cccc2nsnc12,i
COc1cccc(COc2ccc3c(=O)c(Oc4ccccc4OC)coc3c2)c1,i
CSc1ccccc1C(=O)NCC#CCOc1ccc2c(c1)OCO2,i
COc1ccc(F)cc1S(=O)(=O)N(CCc1cccs1)C1CC1,i
CCCCOc1ccccc1-c1cc2c(=O)n(Cc3nc(-c4ccc(SC)cc4)no3)ccn2n1,i
Cc1cc(C(=O)N2CCCC(c3nnc(-c4ccc5c(c4)OCO5)o3)C2)no1 (centres undefined),i
COc1ccc(Cl)cc1C(=O)NCC(O)C1CCCCC1 (centres undefined),i
CSCCC(C)(O)CNC(=O)CC(C)(C)C (centres undefined),i
Cc1cccc2sc(NC(=O)Cc3cc(=O)[nH]c(SCc4ccccc4)n3)nc12,i
CNC(=O)CSc1ncc(-c2ccccc2)n1-c1ccc(F)cc1,i
CCOC(=O)N1CCN(S(=O)(=O)c2ccc(F)c(OCC)c2)CC1,i
Cc1ccc(Oc2ccc(N(C)S(=O)(=O)c3ccc(OC(F)(F)F)cc3)cc2)nn1,i
Cc1cc(C(=O)Nc2nc(C(=O)NCCSc3nncn3C)co2)no1,i
